KCNQ2 enhance = enhances the rat KCNQ2 potassium channel. CHO-K1 KCNQ2, FluxOR thallium flux fluorescence; active compounds read high. B-score at 10 µM. O88943. 0.54% of 310,000 active;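 active = fluorescence ratio B-score at least 3 SD of library B-scores, with initial fluorescence B-score within 3 SD, cut at about 5.3 in these data; same plate scores as AID 2156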;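 also: B-score of peak minus minimum over baseline fluorescence ratio after K+ and Tl+ stimulus; positive B-score means potentiation of KCNQ2 with more thallium influx and brighter signal; only the inactives scoring about 0 or higher are listed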
Target sequence (O88943 whole entry, looked up): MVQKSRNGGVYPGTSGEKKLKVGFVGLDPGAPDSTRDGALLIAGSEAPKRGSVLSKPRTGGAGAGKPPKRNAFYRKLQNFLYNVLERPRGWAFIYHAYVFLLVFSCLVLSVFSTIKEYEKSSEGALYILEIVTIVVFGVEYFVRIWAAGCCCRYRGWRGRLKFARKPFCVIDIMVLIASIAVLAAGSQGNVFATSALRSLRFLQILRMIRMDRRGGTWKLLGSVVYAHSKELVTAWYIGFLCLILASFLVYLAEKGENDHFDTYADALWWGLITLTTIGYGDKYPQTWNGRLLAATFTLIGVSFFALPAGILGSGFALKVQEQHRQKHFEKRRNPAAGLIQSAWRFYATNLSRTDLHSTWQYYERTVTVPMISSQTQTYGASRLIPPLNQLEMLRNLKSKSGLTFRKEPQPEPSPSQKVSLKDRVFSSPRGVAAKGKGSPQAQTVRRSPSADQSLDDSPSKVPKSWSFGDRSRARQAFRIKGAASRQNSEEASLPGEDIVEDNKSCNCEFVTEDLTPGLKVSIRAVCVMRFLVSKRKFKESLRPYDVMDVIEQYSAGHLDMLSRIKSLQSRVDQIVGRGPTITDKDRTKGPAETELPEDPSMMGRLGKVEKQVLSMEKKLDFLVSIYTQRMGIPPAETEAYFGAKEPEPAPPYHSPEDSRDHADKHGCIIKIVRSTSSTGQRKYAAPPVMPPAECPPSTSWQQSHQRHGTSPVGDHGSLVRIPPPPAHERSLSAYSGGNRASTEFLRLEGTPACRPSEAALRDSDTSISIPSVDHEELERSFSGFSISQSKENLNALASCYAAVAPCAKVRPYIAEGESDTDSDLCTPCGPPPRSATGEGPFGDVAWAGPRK
KCNQ2 enhance baseline = second read-out of KCNQ2 enhance, no call of its own (marks repeat the call); B-score; compound at 10 µM; measured here: initial fluorescence intensity artifact check;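 brightness before thallium and not channel activity; 0 = typical well and far values either way flag optical interference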
The depositor's hits bear a star. This is a subset; the hit share may differ from the screen's.

SMILES	KCNQ2 enhance	KCNQ2 enhance baseline
COCCCNC(=O)C1CCC(CNS(=O)(=O)c2ccc3c(c2)CC(C)N3C(=O)C2CC2)CC1 (centres undefined)	0.16	0.82
NC(=O)c1cnn(-c2ccc3ccccc3c2)c1N	0.79	0.37
Cc1ccc(S(=O)(=O)NC2=NCN(C3CCN(Cc4ccccc4)CC3)CN2)cc1	0.04	-0.73
CN(Cc1ccccc1)S(=O)(=O)c1ccc2c(c1)NC(=O)CC(=O)N2	0.05	-0.01
CCOc1cc(C(=O)N=c2sccn2C)cc(Br)c1OC	0.41	-1.2
CCCCN(CCCC)C(=S)N/N=C/c1c(C)[nH]n(-c2ccccc2)c1=O	6.7*	0.56*
CCC(O)C1CCN(C(=O)c2ccc(OC3CCN(Cc4ccccn4)CC3)cc2)CC1 (centres undefined)	0.26	-3.3
O=C(CN1CCC(Cc2ccccc2)CC1)NC(=O)NCc1ccco1	0.81	-0.6
Cn1cc(CN2CCC(C(O)c3cccs3)CC2)c(-c2ccccc2F)n1 (centres undefined)	0.01	-0.8
Cc1ccc(C)c(NC(=S)NNC(=O)c2ccc(Br)o2)c1	0.65	-0.48
O=C(NCCCn1cccn1)C1CCC(=O)N(Cc2ccccc2F)C1 (centres undefined)	0.39	0.99
COC(CNC(=O)c1coc2nc3ccccc3nc12)OC	1.6	0.37
CC1CC(C)CN(C(=O)Cn2c(=O)n(CCCCC(=O)NCc3ccco3)c(=O)c3ccccc32)C1 (centres undefined)	0.68	-0.46
O=C(Nc1ccc(/C=C/c2nc3ccccc3o2)cc1)c1cccc(C(F)(F)F)c1	0.06	0.01
Cn1nc([N+](=O)[O-])nc1Sc1nnc(-c2ccccc2)o1	1	4.8
O=C(NCCO)c1ccc(Oc2ccc(C(F)(F)F)cc2[N+](=O)[O-])cc1	0.03	1.2
CN(C)c1ccc(-c2nnc(SCC3CCCO3)n2C)cc1 (centres undefined)	0.06	0.02
O=C(c1cnn2c(C(F)(F)F)cc(-c3ccccc3)nc12)N1CCCCC1c1cccnc1 (centres undefined)	0.03	-0.67
COc1ccc(C(=O)NC2CCCCCC2)cc1S(=O)(=O)N1CCCc2ccccc21	0.16	-0.04
Cc1ccc(S(=O)(=O)N/N=C\c2cn(CC(N)=O)c3ccccc23)cc1C	0.81	0.27
CCOc1ccc(NC(=O)CN(C)C(=O)c2cccnc2Sc2ccc(Cl)cc2)cc1OCC	1.6	-0.83
CCn1c(=S)sc2c(=O)n(CC(=O)Nc3ccccc3C(F)(F)F)c(C)nc21	1.1	-3.8
CC(C)c1ccc(NC2CCCN(C(=O)CN3CCCC3=O)C2)cc1 (centres undefined)	0.63	0
OCC1(Cc2ccccc2)CCCN(Cc2cn[nH]c2-c2ccccc2)C1 (centres undefined)	0.46	1.2
COc1cccc2c(=O)c(C/C=C(/C)Cl)c(C)[nH]c12	0.82	-3.6

(listing goes on)
SMILES	KCNQ2 enhance	KCNQ2 enhance baseline
CN1c2ccc([N+](=O)[O-])cc2C(C)(C)C12C=Cc1cc(C(=O)O)ccc1O2 (centres undefined)	0.04	-0.09
CCCN1C2CCCC1CC(NC(=O)c1cc(OC)cc(OC)c1)C2 (centres undefined)	1.5	-1.4
O=C(OCc1ccc(F)cc1)c1cc(S(=O)(=O)N2CCCCC2)ccc1N1CCOCC1	0.09	1.9
CCOC(=O)Cc1c(C)nc2c(C#N)c(C)nn2c1C	1.1	1.8
O=C(c1ccc(S(=O)(=O)NCC2CCCO2)cc1)N1CCN(c2ccccc2)CC1 (centres undefined)	0.95	-0.79
Nc1cc(C(=O)O)ccc1Nc1ccccc1	0.34	-0.01
Oc1ccc(-c2nc3ccccn3c2NCc2ccc3c(c2)OCO3)cc1	1.1	-1
CCOC(=O)c1cc2c(=O)n3ccccc3nc2n(CCOC)c1=NC(=O)C(C)(C)C	9.7*	0.75*
CC(C)NC(=O)c1ccc2c(c1)N(Cc1ccccc1)C(=O)C(C)(C)O2	0.11	-0.95
O=C(c1cccc(N2C(=O)C3C4C=CC(C4)C3C2=O)c1)N1CCCCCC1 (centres undefined)	0.03	-0.47
Cc1ccc(NC(=O)CC2=NC(=O)C(CC(=O)Nc3ccccc3F)S2)cc1 (centres undefined)	1.8	-0.05
Cc1cccc(N2CCN(S(C)(=O)=O)CC2)c1C	1.6	-0.2
COC(=O)c1ccc(C)c(NC(=O)CN(c2cc(OC)ccc2OC)S(C)(=O)=O)c1	0.63	-1.3
Cc1cccn2c(CNCCc3ccccn3)c(C(=O)N3CCOCC3)nc12	2.2	-0.95
C=CCn1c(SCC(=O)c2[nH]c(C)c(C(C)=O)c2C)nnc1-c1ccncc1	2.3	-1.4
O=C(CSc1ccc(-c2ccccc2)nn1)NC1CCCC1	0.93	-0.3
O=C(NC1CCCCC1)c1ccc(CS(=O)Cc2ccc(Cl)cc2)o1 (centres undefined)	1.3	-0.2
Nc1nc(SCC(=O)NN(c2ccccc2)c2ccccc2)n[nH]1	1.4	-0.35
CC(=O)Nc1nc2ccc(C(=O)NCCOC(=O)C3CCCCC3)cc2s1	0.05	-0.69
Cc1ccc(Cn2cc(/C=N/Nc3ccc([N+](=O)[O-])cn3)c3ccccc32)cc1	0.54	-0.68
CC(C)(C)C(=O)/C=c1\[nH]c(=O)/c(=C\c2ccccc2F)s1	0.68	0.54
CCn1c(CNC(=O)c2ccccc2)nc2ccccc21	1.2	-0.5
Nc1nc(SCc2ccccc2Cl)[nH]c(=O)c1-c1ccccc1	0.21	-0.38
COC(=O)C(NC(=O)C(NC(=O)C1CCC(C)CC1)C(C)C)C(C)C (centres undefined)	0.01	-0.72
CC1CC(C)(C)NC(=S)N1CCCC(=O)NCc1ccccc1 (centres undefined)	1.4	-0.13

The list goes on:
SMILES	KCNQ2 enhance	KCNQ2 enhance baseline
CCN1CCN(c2ccc(S(=O)(=O)N3CCCCC3)cc2NC(=O)/C=C/c2ccc(OC(F)F)cc2)CC1	0.3	-4.1
Cc1ccc(-c2nn3c(C)nnc3c3ccccc23)cc1S(=O)(=O)N(C)CCO	1.8	0.05
Cc1ccc(C(=O)NNS(=O)(=O)c2ccccc2[N+](=O)[O-])cc1	0.93	-0.07
COCCn1c(SCc2ccc(C(=O)OC)o2)nc2cc(Cl)ccc2c1=O	1.1	-0.1
Cc1ccc(/C=C/S(=O)(=O)NCC(=O)O)cc1	0.04	0.25
Cc1ccc(N2C(=O)C3C4C=CC(CNC(=S)Nc5ccc(Cl)cc5)(O4)C3C2=O)cc1 (centres undefined)	1.1	-1.1
COc1cc2c(cc1OC)CN(S(=O)(=O)c1cccc(F)c1)CC2	0.02	1.2
C=CCn1cc(C(=O)NCc2ccc(Cl)cc2)c(=O)c2cc(S(=O)(=O)N(CC)CC)ccc21	0.28	0.47
Cc1ccc(S(=O)(=O)N2CCC(=O)N(CCOC(=O)Nc3cc(C)cc(C)c3)CC2)cc1	0.9	-0.16
CC(C)OCCCNc1ncnc2c1nc1n2CCCC1	0.52	1.3
CC12C(=O)N(Cc3ccccc3)C(=O)C1C1C=CC2C1 (centres undefined)	0.04	-0.43
COc1ccccc1NC(=S)N1CC(C)(C)C1=O	0.07	1.1
COc1ccccc1C(=O)Nc1ccc(NC(=O)c2ccco2)cn1	1.3	1.1
CCOCc1cn(CC(=O)c2ccc(Cl)cc2)c(C)nc1=N	1.8	-2.1
NC(=O)CC(NC(=O)Cc1ccc(Br)cc1)c1ccc(NCc2ccc(F)c(F)c2)c([N+](=O)[O-])c1 (centres undefined)	1.1	-0.58
CN(Cc1ccccc1)S(=O)(=O)c1ccc2c(c1)CCC(=O)N2	0.01	-1.6
Cc1nn(-c2ccccc2)c(N2CCCC2)c1/C=N/NC(=O)C1CC1	2.7	-1.3
CCOc1ccc(C(=O)Nc2ccc(NC(=O)c3ccco3)c(Cl)c2)cc1Cl	0.78	0
Cc1cccc(NC(=O)C2CCCN(C(=O)NC3CCCCC3)C2)c1C (centres undefined)	0.7	0.79
CCOC(=O)N1CCN(CC(O)c2c[nH]c3ccc(OC)cc23)CC1 (centres undefined)	0.19	0.53
COc1ccc(OC)c(C(C)NC(=O)c2ccc(Br)cc2)c1 (centres undefined)	0.78	-0.71
Cc1sc2ncnc(N3CCC(C(=O)NNC(=O)c4ccccc4Cl)CC3)c2c1C	2.5	-1.3
COC(=O)/C=C1/N/C(=N\c2nc(C)cc(C)n2)N(c2cccc(C)c2)C1=O	2.8	1.1
COc1ccc(N2CC(C)(C)C2=O)cc1	1.6	0
O=C(CSc1cccc[n+]1[O-])NC(=O)c1ccc(OC(F)F)cc1	1.8	0

Further entries follow.
SMILES	KCNQ2 enhance	KCNQ2 enhance baseline
COc1cc(NC(=O)COc2ccc3c(C)cc(=O)oc3c2C)cc(OC)c1OC	0.04	-2.4
CN1CCN(NC(=O)c2ccc(S(=O)(=O)N3CCCCCC3)cc2)CC1	0.12	2
COC(=O)COc1cccc(NC(=O)c2ccccc2)c1	0.12	-1.8
COCc1nnc(NS(=O)(=O)c2ccc(Cl)cc2)s1	0.16	0.04
CCCCN=C(Nc1ccc(Cl)cc1)c1cccnc1	1.5	0.65
CCOC(=O)c1c(C)c(C(=O)NCC2CCCO2)c(C)n1C (centres undefined)	0.62	-0.84
Cc1cc(C)cc(OCC(=O)OCC(=O)N(CC(C)C)c2c(N)n(Cc3ccccc3)c(=O)[nH]c2=O)c1	0.04	-0.45
Nc1ccc(Oc2ccc3c(c2)C(=O)NC3=O)cc1	0.69	2.8
CC(C)(C)C(=O)NC(=S)Nc1ccc(S(=O)(=O)Nc2nccs2)cc1	1.3	-0.28
COC(=O)CNC(=O)c1ccc(OC2CCN(C(=O)C3CC3)CC2)cc1	2.4	-0.59
Oc1c(Br)cc(/C=N/Nc2ccc(Cl)nn2)cc1Br	2.6	-1.1
Cc1ccc(-c2csc3ncn(CC(=O)N4CCOCC4)c(=O)c23)cc1	0.05	0.17
O=C(Oc1ccccc1Cl)c1ccc(N2CCOCC2)c([N+](=O)[O-])c1	0.61	-0.4
COc1ccc(C2C(C#N)=C(N)Nc3onc(C(C)(C)C)c32)c(OC)c1 (centres undefined)	2.1	-0.68
COc1cc2c3c(c1OC)C1(C=CC(=NO)C=C1)CC3N(C(C)=O)CC2 (centres undefined)	1.1	0.64
Cc1cc(C)nc(Nc2ccc(Br)cc2C(=O)O)n1	1.2	1.4
Cc1nn(CCCC(=O)O)c(C)c1[N+](=O)[O-]	0.05	1.8
CC1(C)CC(=O)C2=C(C1)NCN(Cc1ccccc1)C2	0.01	0.21
O=C(Nc1ccccc1N1CCCCC1)c1cccc([N+](=O)[O-])c1	0.5	-2.6
COc1cccc(NC(=O)c2ccccc2NS(C)(=O)=O)c1	2.6	0.55
COc1ccc(CNC(=O)[C@H](C)NC(=O)C2CCN(C(=O)[C@@H](N)CCSC)CC2)cc1	0.06	0.06
C/C=C\C(=O)Nc1cccc(C2=NOC3(C2)C[C@H](C(N)=O)N(C(=O)Cc2ccc([N+](=O)[O-])cc2)C3)c1 (some centres undefined)	0.06	-1
COc1cc(-c2[nH]nc3c2C(c2ccco2)C(C#N)=C(N)O3)cc(OC)c1OC (centres undefined)	0.83	0.02
O=C(CSc1ccc2c(c1)OCCO2)NCCN1C(=O)CSC1=O	0.43	-0.04
Cc1csc(NC(=O)CSc2ccccc2F)n1	1.1	-0.25

Record cards, from the list above.
CN1CCN(NC(=O)c2ccc(S(=O)(=O)N3CCCCCC3)cc2)CC1 across the screens: KCNQ2 enhance: 0.12; KCNQ2 enhance baseline: 2
Cc1cc(C)cc(OCC(=O)OCC(=O)N(CC(C)C)c2c(N)n(Cc3ccccc3)c(=O)[nH]c2=O)c1 across the screens: KCNQ2 enhance: 0.04; KCNQ2 enhance baseline: -0.45
COc1cc(-c2[nH]nc3c2C(c2ccco2)C(C#N)=C(N)O3)cc(OC)c1OC (centres undefined) across the screens: KCNQ2 enhance: 0.83; KCNQ2 enhance baseline: 0.02

Next part.
SMILES	KCNQ2 enhance	KCNQ2 enhance baseline
Cc1ccc(NC(=O)c2ccc(C)c(S(=O)(=O)N3CCOCC3)c2)nc1	1.6	0.26
O=S(=O)(NCc1cccnc1)c1ccc(Br)c2ccccc12	1.6	-0.4
CC(=O)c1ccc(NC(=O)Nc2cccnc2)cc1	1.9	-0.66
CSCCC(NC(=O)c1ccccc1Br)C(=O)NCC(c1ccco1)N1CCCCC1 (centres undefined)	0.69	-0.09
O=C(Nc1ccc(Cl)cc1)Nc1csc([N+](=O)[O-])c1	0.99	-1.1
O=C(Nc1cccc([N+](=O)[O-])c1)Nc1ccc2c(c1)CCC2	1.8	-1.3
O=C(NN=C1CCCCCC1)NC1CCCCC1	0.68	-0.45
COc1ccccc1N1C(=NC(=O)C2CCCCC2)SC2CS(=O)(=O)CC21 (centres undefined)	0.07	0.29
COc1ccc(-c2cc(-c3ccc(O)cc3)nc(N)c2C#N)cc1	0.11	0.41
CN(C)CCCNS(=O)(=O)c1ccc(Oc2ncc(C(F)(F)F)cc2Cl)cc1	0.57	0.88
O=C(CCc1nc(-c2ccccc2)no1)NCC1CCCO1 (centres undefined)	0.06	-0.06

Part of the list above in order of length of the SMILES, ascending.
SMILES	KCNQ2 enhance	KCNQ2 enhance baseline
COc1ccccc1NC(=S)N1CC(C)(C)C1=O	0.07	1.1
CCOC(=O)Cc1c(C)nc2c(C#N)c(C)nn2c1C	1.1	1.8
O=S(=O)(NCc1cccnc1)c1ccc(Br)c2ccccc12	1.6	-0.4
CN(C)CCCNS(=O)(=O)c1ccc(Oc2ncc(C(F)(F)F)cc2Cl)cc1	0.57	0.88
COC(=O)c1ccc(C)c(NC(=O)CN(c2cc(OC)ccc2OC)S(C)(=O)=O)c1	0.63	-1.3

Source: PubChem
